Screening data: PubChem, several laboratories
B2AR ag: beta2AR agonists driving receptor internalization, primary screen, cell-based, FAP fluorogen, flow cytometry | Am2.2-beta2AR cells; reference of the scale not given here | response, % (no concentration beside the values) | 340,000 tested, 0.43% active;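 active = response above a set limit, near 3 SD of response in nonfluorescent compounds, cut at about 42% in these data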;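 note: stock transfer was 100 nL into about 11 µL; a reference agonist was the positive control; negative values mostly stem from fluorescent compounds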
Bfl-1 A1 inh: caspase 3/7 activation in MEF A1-2A-BIM cells, primary screen, A1 inhibitor project, cell-based, luminescence, HTS. Caspase-Glo 3/7 luminescence, 3 h; percent of clofoctol response, vehicle zero. 330,000 tested, 0.066% active. caspase activation, % (test concentration not listed). AID 2462, 2010;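 active = over half of replicate activation scores above 10%, or exactly half above 10 with the replicate mean above 10; inconclusive = replicate mean below 10 yet half the replicates above 10; inactive = over half of replicates below 10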;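 note: wells of about 30 µL received 50 nL stock; many hits fall short of the cut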
UCH37 DUB inh: inhibitors of human UCH37 deubiquitinase, primary screen, biochemical, Ub-AMC cleavage, fluorescence. inhibition, % (no concentration beside the values). purified proteasome/UCH37. 330,000 tested, 0.33% active. AID 588478, 2011. Ubiquitin carboxyl-terminal hydrolase isozyme L5 (Homo sapiens), Q9Y5K5;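 active = mean of two replicates above 20%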;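 note: 0% = compound-free wells with enzyme and 100% = wells lacking proteasome; stock transfer was 100 nL into about 20 µL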
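Schedule: 30 min plus 25 min, room temperature / Material: human UCH37 within purified proteasomes / Technique: AMC fluorescence intensity at 355/460 nm / Buffer or medium: pH 7.4 Tris-HCl (50 mM) with ovalbumin, ATP-MgCl2, DTT / Controls: wells without proteasome as full block, compound-free enzyme plus substrate as uninhibited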
Vif TR-FRET: inhibitors of Vif binding to APOBEC3G peptide, primary screen, biochemical, TR-FRET, GST-Vif 1-94, biotin-A3G peptide, dose response retest (AID 1117319); Virion infectivity factor (Human immunodeficiency virus type 1 group M subtype B (isolate …; TR-FRET GST-Vif / biotin-A3G peptide binding; higher % means a stronger effect; test concentration not given here; strong numbers were not always called active; inhibition, %, or IC50 in µM where a hit was titrated; 260,000 tested, 0.57% active;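 active = above the screen mean plus three standard deviations and confirmed in dose response; inconclusive = results disagree or hit not tested in dose response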;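 note: Vif residues 1-94 fused to GST binding biotinylated APOBEC3G peptide 110-148; 0% = full assay without inhibitor and 100% = GST in place of GST-Vif; retest series ran down from 100 µM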
HNF4A DNA FP: change in binding of human HNF4A to DNA, primary screen, biochemical, fluorescence polarization, FITC-DNA. 1 h. activity change, % at 10 µM. Hepatocyte nuclear factor 4-alpha (Homo sapiens), P41235. 360,000 tested, 0.3% active; in the data active = activity change above about 30%, passing the limit was not always enough;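 note: controls were the assay level and a saturating level of protein; the project sought stronger binding though the title names inhibitors; some compounds called inactive have numbers as strong as hits; positive values seem to mean higher polarization but the record does not say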
E coli growth: E. coli growth inhibition, primary screen, OD600; Escherichia coli growth, 23 h; stronger effect = lower value; OD600 absorbance (no concentration beside the values); 330,000 tested, 0.21% active; AID 1053175, 2014;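 active = OD600 absorbance below the run mean of sample wells minus 3.6 SD, in any replicate, cut at about 0.56 in these data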;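 note: stock transfer was 300 nL into about 60 µL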
LANA-H2A inh: blockers of LANA interaction with H2A/H2B – biochemical, FP readout, HTS, primary screen. Protein LANA1 (Human herpesvirus 8 type P (isolate GK18)), Q9QR71. cell-free LANA-H2A/H2B peptide, fluorescence polarization. inhibition, % (concentration not given with the values). 320,000 tested, 0.6% active; in the data active = inhibition mostly above about 10%, no sharp cut-off; inactive = mostly below about 6.7%;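 note: stock transfer was 7.5 nL into about 10 µL; 0% = median of vehicle wells and 100% = median of positive control wells; one replicate is shown; the record names a cut of 25% in any replicate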
Target sequence (Q9QR71 whole entry, looked up): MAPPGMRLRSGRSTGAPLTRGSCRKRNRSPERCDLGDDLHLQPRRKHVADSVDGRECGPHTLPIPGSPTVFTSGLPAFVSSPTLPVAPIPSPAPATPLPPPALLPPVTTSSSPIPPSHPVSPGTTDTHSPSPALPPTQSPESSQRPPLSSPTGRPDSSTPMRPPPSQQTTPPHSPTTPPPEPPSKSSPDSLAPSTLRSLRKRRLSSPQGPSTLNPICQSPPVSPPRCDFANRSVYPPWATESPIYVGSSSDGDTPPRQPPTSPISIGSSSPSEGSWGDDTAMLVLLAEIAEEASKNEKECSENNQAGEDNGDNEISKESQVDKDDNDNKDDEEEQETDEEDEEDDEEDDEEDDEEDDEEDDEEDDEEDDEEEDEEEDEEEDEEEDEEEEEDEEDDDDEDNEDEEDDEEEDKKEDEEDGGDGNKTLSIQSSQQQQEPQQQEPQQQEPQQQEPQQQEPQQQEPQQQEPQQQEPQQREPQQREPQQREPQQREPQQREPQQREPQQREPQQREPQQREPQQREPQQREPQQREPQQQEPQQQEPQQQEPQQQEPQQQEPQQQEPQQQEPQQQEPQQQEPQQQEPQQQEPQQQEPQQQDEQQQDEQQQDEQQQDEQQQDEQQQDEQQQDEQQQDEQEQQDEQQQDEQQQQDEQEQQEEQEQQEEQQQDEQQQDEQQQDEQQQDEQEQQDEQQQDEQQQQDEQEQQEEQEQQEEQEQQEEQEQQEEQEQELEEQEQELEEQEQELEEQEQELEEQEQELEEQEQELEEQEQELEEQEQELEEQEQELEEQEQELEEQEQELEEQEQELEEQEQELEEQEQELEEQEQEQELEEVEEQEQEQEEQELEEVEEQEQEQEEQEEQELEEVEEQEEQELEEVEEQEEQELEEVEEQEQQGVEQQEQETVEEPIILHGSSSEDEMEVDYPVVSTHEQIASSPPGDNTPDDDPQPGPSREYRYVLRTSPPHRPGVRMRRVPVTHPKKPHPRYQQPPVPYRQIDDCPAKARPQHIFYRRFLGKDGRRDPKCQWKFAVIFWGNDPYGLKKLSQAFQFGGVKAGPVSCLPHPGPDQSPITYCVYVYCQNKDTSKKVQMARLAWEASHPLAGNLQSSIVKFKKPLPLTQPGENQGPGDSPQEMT
* hit, by the source's call; ? = inconclusive; . = not tested or not shown. Not a hit list; overall some 2.1% were active at least once.

Every second line gives: B2AR ag	Bfl-1 A1 inh	UCH37 DUB inh	Vif TR-FRET	HNF4A DNA FP	E coli growth	LANA-H2A inh
> Nc1ccc(S(=O)(=O)Nc2ccc(C(=O)c3ccccc3)cc2)cc1
    -2	-0.2	2.5	.	-1.2	0.65	-2.6
> CCOC(=O)c1ccc(NC(=O)c2cc(S(=O)(=O)N3CCOCC3)cn2C)cc1
    -4	0.4	-1.1	.	0.5	0.79	0.3
> Oc1ccccc1-c1nc(N2CCCC2)c2ccccc2n1
    20	0.9	-1.1	-214%	-1.6	0.73	1.1
> Cc1cc(NC(=O)c2cc(-c3ccc(O)cc3)on2)no1
    3	-2.1	1.3	-3%	2.7	0.65	-9.8
> CCc1ccc(OCc2ccc(C(=O)OC)o2)cc1
    -2	-1.0	3.3	5%	1.1	0.64	-0.5
> CCOC(=O)N1CCC(N(CCCOC)C(=O)Nc2ccc(CC)cc2)CC1
    2	-0.6	-1.2	-4%	-0.2	0.71	2.0
> CCCC(=O)c1ccc(N2CCCCC2)c(F)c1
    6	-1.7	1.8	-5%	1.8	0.72	0.0
> COc1cccc(-n2c(Cc3cc(=O)[nH]c(=O)[nH]3)nnc2SCC(=O)NC2CCCCC2)c1
    2	-1.2	2.8	-3%	0.4	0.73	4.9
> O=C(Nc1cc(S(=O)(=O)Nc2ccccc2Cl)ccc1O)c1ccc(F)cc1F
    9	-0.1	1.2	-7%	-4.6	0.75	3.8
> Cn1cc(S(=O)(=O)Oc2ccccc2)c(=O)n(C)c1=O
    3	0.8	3.0	13%	0.7	0.69	-1.8
> Nc1c(C2=NCCO2)nnn1Cc1ccccc1
    -1	-0.6	2.1	-4%	2.9	0.64	-2.2
> CCn1cc(CN2CCC(C(=O)Nc3cccc(-c4cccc(OC)c4)c3)CC2)c(C)n1
    4	0.7	2.3	.	2.4	0.72	1.5
> COc1ccc(N(CC(=O)N2CCN(c3ccccc3F)CC2)S(=O)(=O)c2c(C)n[nH]c2C)cc1
    -9	0.4	3.1	12%	5.7	0.64	-0.2
> Cc1ccc(C(=O)N/C(=C\c2cccnc2)C(=O)N2CCCC2)cc1
    4	0.2	1.5	.	0.9	0.65	2.6
> Fc1cccc(CNc2ncnc3cc(Cl)ccc23)c1F
    2	-0.2	-1.1	-30%	1.9	0.61	-3.6
> CCCCCCCCNc1nc(Cl)nc(NCCN2CCOCC2)n1
    -5	0.0	1.7	0%	0.3	0.69	-1.3
> OCC[C@H]1C[C@@H](O)[C@H](O)[C@@]2(OCc3ccccc32)O1
    8	-0.7	-1.9	.	2.0	.	23
> CC(=O)c1cccc(NC(=S)NNC(=O)c2ccc(C)c([N+](=O)[O-])c2)c1
    10	0.1	5.5	15%	-2.1	0.7	-0.5
> CC(O)CNc1nc2ccccc2n1CC(=O)NC12CC3CC(CC(C3)C1)C2 (stereo unspecified)
    -6	-0.5	0.2	6%	4.8	0.73	-3.0
> O=C(Nc1ccc(Cl)cc1)c1ccc2ncsc2c1
    -3	-1.1	3.1	-20%	4.9	0.64	-2.1
> CCCNC(=O)c1ccc2c(=O)n(Cc3ccco3)c(=S)[nH]c2c1
    20	0.2	2.3	.	0.8	0.72	2.9
> O=C(O)c1cccc(NS(=O)(=O)c2ccc(Cl)c(C(=O)Nc3cccc([N+](=O)[O-])c3)c2)c1
    1	0.3	1.3	.	0.9	0.68	2.5
> CN(Cc1nc(-c2ccc(Cl)cc2)no1)C(=O)c1ccco1
    -4	-0.4	0.4	.	1.4	0.69	3.3
> O=C(N/N=C/c1ccc2c(c1)OCO2)c1ccc(COCC(F)(F)C(F)F)cc1
    -1	-0.3	.	-6%	-0.5	.	4.1
> NNC(=O)c1cc2c(ccc3ccccc32)o1
    6	-0.7	-0.3	-1%	-0.5	0.64	5.4
> O=C(Cn1nnc(-c2ccccc2NC(=O)c2ccccc2F)n1)NC1CCCC1
    -3	0.9	-3.6	1%	-0.3	0.73	2.7
> Cc1ccc(S(=O)(=O)N2[C@@H](c3ccc(F)cc3)C(C(=O)O)=CC[C@H]2c2ccc(C(C)C)cc2)cc1
    -6	1.4	1.2	.	-4.3	.	-0.3
> CCN(CC)c1ccc(NC(=O)c2cnccn2)cc1S(=O)(=O)Nc1ccc(OC)cc1
    -9	1.4	5.6	2%	2.7	0.71	1.9
> C/C(CCC12CC3CC(CC(C3)C1)C2)=N\NC(N)=S
    -3	-0.7	.	4%	3.6	.	-6.1
> Cn1nc(N)nc1N1CCN(c2ccc(F)cc2)CC1
    2	0.4	3.2	10%	-1.1	0.64	1.5
> COc1ccc(C(=O)C2CCCN(C(=O)CCc3ccccn3)C2)c(C)c1 (stereo unspecified)
    -6	2.2	4.5	3%	-0.9	0.66	3.9
> O=C(O)c1cc(S(=O)(=O)N2CCOCC2)c(Sc2ccccn2)cc1Sc1ccccn1
    2	.	.	-6%	1.9	0.69	.
> O=C(O)/C=C\C(=O)Nc1ccc(N2CCN(c3cccc(Cl)c3)CC2)cc1
    6	-0.1	4.7	?	2.3	0.68	-1.1
> O=C(Nc1nnc(-c2ccco2)o1)c1cccc(Cl)c1
    -1	-1.1	4.4	10%	1.1	0.69	0.4
> O=C(c1ccc(F)cc1Cl)N1CCN(CCc2ccccc2)CC1
    -3	0.8	5.3	.	-1.3	0.67	-5.1
> Cc1ccc2nc(C)cc(N/N=C/c3ccc(F)cc3)c2c1
    1	-0.7	.	-8%	0.4	.	-2.8
> COc1ccc(N=C2C(=O)Nc3ccccc32)cc1
    3	0.0	1.7	9%	0.4	0.6	-0.6
> CCC(CO)Nc1ncnc2c1cnn2-c1ccc(Cl)cc1 (stereo unspecified)
    6	-0.1	4.7	1%	0.9	0.8	2.1
> Cn1c(=N)n(CC(O)c2ccccc2)c2ccccc21 (stereo unspecified)
    -1	0.7	-0.9	1%	1.6	0.69	0.5
> Cc1nc(C(=O)N(C)C)nn1-c1ccc(Cl)cc1Cl
    -1	-1.3	1.7	-5%	2.5	0.7	7.2
> CC1(C)C2CCC1(C)C(SC(=N)N)C2 (stereo unspecified)
    -201	.	1.5	-6%	-0.4	0.68	.
> C/C(=N\NC(=O)c1ccccc1Cl)c1ccccn1
    6	-1.0	.	.	-1.5	.	3.7
> CCCc1cc(C(=O)N/N=C/c2ccc(C)o2)c2ccccc2n1
    -15	0.5	.	-5%	1.5	.	1.8
> CCOC(=O)c1cc(C#N)c(SCc2cccc3ccccc23)nc1C
    6	-0.9	1.2	-7%	3.1	0.81	2.5
> O=C(OCC(=O)N1CCCC1)c1ccc(S(=O)(=O)Nc2ccccc2)cc1
    10	1.1	1.4	-6%	0.0	0.7	11
> COc1ccc(C(C)=O)cc1CC(=O)Nc1cccc(S(=O)(=O)N2CCOCC2)c1
    4	0.0	0.1	-4%	4.6	0.63	-5.3
> O=C(CN1C(=O)COc2ccccc21)c1ccc(Cl)cc1
    -7	0.4	4.6	-6%	14	0.66	-0.3
> COc1ccc(Cc2c(O)nc(SCC(C)C)[nH]c2=O)cc1
    0	1.8	2.8	21%	1.0	0.7	1.8
> N#Cc1ccc(-c2cn3c(n2)SCC3)cc1
    -6	-0.5	-409	8%	3.7	0.66	-3.5
> Cc1ccc2c(C)c(C(=O)Nc3ccc(S(=O)(=O)Nc4onc(C)c4C)cc3)oc2c1
    -2	0.4	4.0	12%	0.3	0.73	3.4
> c1ccc(NCn2cncn2)nc1
    5	-0.3	2.3	19%	-0.2	0.7	-1.5
> CS(=O)(=O)c1ccc(Cl)c(NC(=O)COC(=O)c2cccc(C#N)c2)c1
    -8	-0.3	6.3	4%	-1.5	0.72	1.3
> C[C@@H]1CC=C[C@H]2[C@H]1C(=O)N(Cc1ccccc1)[C@H]2c1ccc2ccccc2c1
    7	-0.6	3.6	9%	4.9	.	-3.4
> COc1ccc(C)cc1NC(=O)C(C)N(c1ccc(C)cc1)S(C)(=O)=O (stereo unspecified)
    -3	.	0.6	-1%	2.4	0.73	.
> O=C(COC(=O)c1cc(-c2cccs2)nn1-c1ccccc1)Nc1cc([N+](=O)[O-])ccc1Cl
    -3	-0.2	2.2	4%	-1.6	0.72	-4.8
> COC(=O)CON1C(=O)c2ccccc2C1=O
    14	-0.5	0.3	3%	2.5	0.73	-0.9
> Cn1c(=O)oc2cc(S(=O)(=O)NCCC(=O)NCc3ccc(F)cc3)ccc21
    4	0.5	6.4	0%	-1.5	0.64	-2.7
> Cc1ccc(S(=O)(=O)N2CCN(C)CC2c2ccccc2)cc1 (stereo unspecified)
    -2	0.1	2.8	13%	1.3	0.67	-1.1
> COc1ccccc1CNC(=O)COC(=O)Cn1cnc2ccccc21
    15	0.7	2.0	-2%	-1.9	0.69	1.4
> CCCc1nnc(NC(=O)CCC(=O)Nc2ccc(F)cc2)s1
    -7	0.1	-0.1	-2%	-3.4	0.7	3.3

Further entries follow:
Every second line gives: B2AR ag	Bfl-1 A1 inh	UCH37 DUB inh	Vif TR-FRET	HNF4A DNA FP	E coli growth	LANA-H2A inh
> CCSc1nnc(N2C(=O)c3ccc(C(=O)c4ccc(C(=O)O)cc4)cc3C2=O)s1
    -4	0.5	4.6	.	-1.5	0.64	1.1
> O=C(CN(C(=O)CCC(=O)Nc1nccs1)C1CCCC1)NCc1ccc2c(c1)OCO2
    2	0.6	5.8	-1%	6.2	0.63	-0.2
> CCOc1ccccc1N1C(=O)CC(Sc2nccc(C)n2)C1=O (stereo unspecified)
    47*	1.0	3.2	.	0.0	0.71	-1.0
> CC(CCc1ccccc1)NC(=O)CSc1nccc(=O)[nH]1 (stereo unspecified)
    -1	1.1	-0.3	-3%	-2.0	0.66	-3.2
> O=C(COc1ccc(S(=O)(=O)NC2CCCCC2)cc1)N1CCN(c2ccc(F)cc2)CC1
    2	0.0	3.7	6%	-2.1	0.73	-3.0
> O=C(CNC(=O)c1ccc2c(c1)OCO2)Nc1ncccc1O
    -3	-0.2	5.8	22%	-3.2	0.67	1.9
> CC12CCC(=O)N1C(C(=O)NCc1ccc(Cl)cc1Cl)CS2 (stereo unspecified)
    -5	0.2	2.4	5%	-0.8	0.72	4.0
> COC(=O)c1ccc2[nH]c3c(c2c1)CC(C)CC3 (stereo unspecified)
    18	1.3	1.3	.	-0.9	0.69	4.5
> CC1CC(NC(=O)CCn2c(=O)oc3ccccc32)CC(C)(C)C1 (stereo unspecified)
    5	0.1	1.8	6%	-3.5	0.78	1.5
> CN1C2C=C(N(CCc3ccccc3)C(=O)c3ccc(Cl)cc3)CC1CC2 (stereo unspecified)
    -5	-0.4	1.5	6%	-0.9	0.65	2.7
> Cc1ccc(-c2nc(CS(=O)(=O)CC(=O)N3CCN(C)CC3)c(C)o2)cc1
    28	-0.3	1.1	.	-1.1	0.66	5.5
> COc1ccc2[nH]c3c(c2c1)CCNC3c1ccc([N+](=O)[O-])o1 (stereo unspecified)
    -283	0.4	.	.	-39	.	21*
> COc1ccc(C(=O)COC(=O)CCN2C(=O)C3C4C=CC(C5CC45)C3C2=O)cc1 (stereo unspecified)
    0	-0.5	3.8	.	-0.2	0.7	-0.8
